PABP FP inh: PABP poly(A) RNA binding inhibitors, primary screen, biochemical, fluorescence polarization, uHTS | actives 1% (n = 290,000) | Polyadenylate-binding protein 1 (Homo sapiens), P11940 | inhibition, % at 35 µM;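 active means 50% or more with normal probe brightness, or confirmed in later tests; inconclusive means above 50% with abnormal brightness, or retests that disagree; inactive means below 50% or failed in later tests; about a fifth of its hits are not listed in these tables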;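 further: calls also rest on retests at 20 µM and on dose response follow-up; controls were probe without protein and protein plus probe with vehicle; some compounds called inactive have numbers as strong as hits; many hits fall short of the cut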
Rce1 inhib: yeast Rce1p protease inhibitors, primary screen, biochemical, fluorescence, cell-free homogeneous; calls only; AID 2563, 2010; actives 0.27% (n = 290,000); yeast membranes, quenched prenylated peptide cleavage fluorescence;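 active means fall in fluorescence gain of 50% or more versus controls, with final raw signal at or below 3038400; inconclusive means same 50% fall but final raw signal above 3038400; inactive means fall in fluorescence gain under 50%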;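 further: plate controls were neutral control wells for no effect and wells lacking membranes for full effect; tested at 10 µM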
Target sequence (Q03530 whole entry, looked up): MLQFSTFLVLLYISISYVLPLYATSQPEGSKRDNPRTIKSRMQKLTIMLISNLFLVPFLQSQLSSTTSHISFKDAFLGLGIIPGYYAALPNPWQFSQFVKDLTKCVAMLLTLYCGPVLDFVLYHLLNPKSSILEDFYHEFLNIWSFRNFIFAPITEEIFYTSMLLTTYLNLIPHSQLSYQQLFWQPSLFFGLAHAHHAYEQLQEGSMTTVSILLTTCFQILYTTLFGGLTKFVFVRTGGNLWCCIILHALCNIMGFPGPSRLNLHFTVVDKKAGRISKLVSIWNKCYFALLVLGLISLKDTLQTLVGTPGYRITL
Yeast UUG start: modulators of yeast start codon fidelity, primary screen, whole organism, S. cerevisiae, single point, plate reader | S. cerevisiae UUG-firefly luciferase reporter, luminescence/redox ratio | activity score, % at 18.7 µM | actives 0.13% (n = 350,000) | AID 602363, 2012;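 active means replicate mean at a twofold rise or more, about +100% in these data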;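 further: firefly luciferase made from a UUG start codon reports start codon fidelity; reporter light over untreated wells divided by growth signal over untreated wells; some hits fall short of that in this replicate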
Env fusion inh: inhibitors of HIV-1 Env-driven cell-cell fusion, primary screen, HeLa-JRFL effector, CEM21 target cells, luciferase; inhibition, % at 12.3 µM; actives 1.1% (n = 360,000);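 active means mean replicate inhibition score of at least 50 and every replicate individually at or above 50; inconclusive means only one of the two criteria met; inactive means mean below 50 and not all replicates reaching 50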;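 further: 0% = plate neutral controls and 100% = maraviroc near 300 nM; one replicate is shown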
CSC inhib: cancer stem cell viability inhibitors, primary screen, luminescence. cancer stem cell-like cells viability. inhibition, % at 7.5 µM. actives 1.1% (n = 300,000);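 active means mean at 75% or more and at least half the replicates too; inconclusive means mean and replicates disagree; tested in HMLE shEcad cells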;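 further: 0% = median of negative and 100% = median of positive control wells; the first replicate is given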
MT1-MMP act inh: blockers of MT1-MMP proenzyme processing, primary screen, HT1080 RFP-PRO-GFP cells, GFP/RFP fluorescence; Matrix metalloproteinase-14 (Homo sapiens), P50281; GFP/RFP ratio fluorescence, overnight; percent of plate control window, DMSO zero; GFP/RFP ratio change, % at 20 µM; actives 0.061% (n = 360,000);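 active means GFP/RFP ratio change of at least 30% with cell ATP level not reduced by more than half and red fluorescence within 50% of control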; further: strong numbers were not always called active
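Compound: 20 µM single dose, 1% DMSO / System: HT1080 RFP-PRO-GFP cells / Controls: DMSO and RFP-L50D-GFP cell wells / Read-out basis: GFP/RFP fluorescence ratio / Schedule: overnight compound exposure at 37 °C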
eIF4H inh: human eIF4H binding inhibitors, primary screen, translation initiation inhibitor project, biochemical, uHTS, fluorescence polarization; actives 0.94% (n = 290,000); eIF4H fluorescence polarization binding assay; inhibition, % at 35 µM; Eukaryotic translation initiation factor 4H (Homo sapiens), Q15056;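 active means 50% or more with normal probe brightness, or confirmed in later tests; inconclusive means above 50% with abnormal brightness, or retests that disagree; inactive means below 50% or failed in later tests; about a fifth of its hits are not listed in these tables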;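 further: calls also rest on retests at 20 µM and on dose response follow-up; 0% = protein and probe with vehicle and 100% = probe without protein; strong numbers were not always called active; many hits fall short of the cut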
MT1-MMP act inh RFP: second read-out of MT1-MMP act inh, no call of its own (marks repeat the call); RFP signal change, %; measured here: RFP expression control read;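 0 = vehicle wells; hits needed this value within 50% of zero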
* hit, by the source's call; i = inactive; ? = inconclusive; · = not tested or not shown.

SMILES	PABP FP inh	Rce1 inhib	Yeast UUG start	Env fusion inh	CSC inhib	MT1-MMP act inh	MT1-MMP act inh RFP	eIF4H inh
CC(C)(C)OC(=O)C[C@H]1C/C=C\C[C@H](CC(=O)NCCO)C(=O)N2CCC[C@@H]2COC1=O	·	·	-1	4	2	2	2	·
COc1ccc(N=Cc2c(O)c3ccccc3oc2=O)cc1	-6	i	-39	6	-1	-11	-1	37
CN(C)c1nc(SCC(=O)Nc2ccccc2)nc(N2CCOCC2)n1	2	i	·	9	-24	-1	2	5
O=C(NCCc1ccccc1)C1CC1	9	i	-15	13	-4	-3	-1	3
Cc1cnc(C(=O)OCC(=O)c2ccc(-c3ccccc3)cc2)cn1	-1	i	-5	19	-5	·	·	-3
Cc1oc(C(C)(C)C)cc1C(=O)NC1CCN(Cc2ccccc2)CC1	1	·	-4	-4	16	-2	-3	-8
O=C(CSc1ncccn1)N/N=C/c1cccc([N+](=O)[O-])c1	-4	i	-19	-8	15	13	9	-4
O=C(NCCC1CCCCN1S(=O)(=O)c1ccc(Cl)cc1)C(=O)NCc1cccnc1 (stereo not drawn)	·	i	-7	-6	14	2	-8	·
C=CC[C@]12CCc3ccccc3C1N(c1ccc(C(=O)OCC)cc1)C2=O (stereo partly drawn)	·	·	-26	61*	18	-5	-9	·
COc1ccccc1/C=C(/CC(=O)NCc1ccc(F)cc1)c1nc2ccccc2s1	16	i	·	-1	14	-5	-9	26
C/C(=N\NC(=O)Cc1ccccc1)c1ccc(Cl)s1	4	i	-21	·	·	2	6	0
O=S(=O)(Nc1ccc2ccccc2n1)c1ccccc1Cl	-11	i	1	9	-1	4	-1	-11
O=C(NCCS(=O)(=O)c1ccc(Br)cc1)c1ccc(Cl)cc1Cl	1	i	-17	-6	-7	6	3	1
CCN(CC)c1ccc(CN2CCCCCC2)cc1	21	i	-9	·	44	6	8	-3
CS(=O)(=O)Nc1ccc(C(=O)NCCc2ccccc2)cc1	-8	i	-24	·	·	-1	2	4
O=C(/C=C/c1cccs1)NC(=S)Nc1ccc(C(=O)O)cc1	-4	i	-32	-24	6	0	0	-13
COc1ccc(S(=O)(=O)NNc2nc(C)cc(C)n2)cc1Br	·	·	-22	-8	4	3	1	·
C[C@@H]1CN([C@@H](C)CO)C(=O)CCCn2cc(nn2)CO[C@H]1CN(C)S(=O)(=O)c1cccc(C#N)c1	·	·	-13	-12	·	3	4	·
COc1ccccc1OCC(=O)NNC(=O)c1ccoc1C	11	i	·	-15	·	2	1	5
CC(NC(=O)C(=O)NN=C1CCCC1)c1ccccc1 (stereo not drawn)	-3	i	·	13	-5	-1	3	2
Cc1ccc(C(=O)NN2C(=O)CSC2=S)cc1	-4	i	·	16	-3	13	21	4
Nc1cc2sc(-c3ccc(C(=O)O)cc3)nc2cc1Cl	3	i	-36	-26	-8	15	1	-3
Cc1ccc2cc(NC(=O)c3ccc(C(C)(C)C)cc3)ccc2n1	10	i	-7	-16	·	5	-2	-12
Cc1ccc(S(=O)(=O)N(C(=O)c2ccncc2)c2ccc(OC(=O)c3ccncc3)c3ccccc23)cc1	-1	i	·	·	26	4	8	7
O=C(Nc1ccc2c(c1)OCO2)c1cnn2cccnc12	0	i	-40	·	-8	2	-1	-5
CCOC(=O)c1c(-n2cnnn2)sc2c1CCCC2	-1	i	·	2	-13	-2	4	-6
Cc1ccc(OCC(=O)N/N=C2/SCC(=O)N2Cc2ccco2)cc1	2	i	·	3	-5	-3	-2	-11
CCc1ccc(NC(=O)C2CCCN2S(=O)(=O)c2ccc3c(c2)C(C)(C)C(=O)N3C)cc1 (stereo not drawn)	8	i	8	5	·	-1	-11	-9
Cn1nnc(NC(=O)c2ccc3ccccc3c2)n1	-8	i	-17	·	-15	0	1	-7
O=C(NCC(c1ccco1)N1CCCC1)c1cccc(S(=O)(=O)Nc2ccc(Br)cc2)c1 (stereo not drawn)	46	i	4	·	-9	-2	-1	29
COCC(=O)Nc1ccccc1Br	-2	i	·	9	7	0	1	-9
CC(C)NC(=O)c1cc(C2CCCCN2C(=O)c2cc(C(C)(C)C)nn2C)on1 (stereo not drawn)	·	·	-12	4	·	-1	-8	·
O=C1CSC(=S)N1/N=C/c1cc(Br)ccc1O	0	i	·	·	23	·	·	14
COc1cccc(C2CC(C(F)(F)F)n3ncc(C(=O)NC(C)(C)C)c3N2)c1 (stereo not drawn)	-8	i	-11	-46	-9	4	3	-5
CCOc1ccccc1NC(=O)CN1C(=O)COc2ccc(Cl)cc21	-2	i	-11	-21	1	4	-5	-7
O=C(NN1C(=O)c2ccccc2NC1c1ccccn1)c1ccccc1 (stereo not drawn)	-2	i	-23	-28	·	2	7	-1
CC(Sc1nnc(C(F)(F)F)n1C)C(=O)NC(N)=O (stereo not drawn)	1	i	-7	-31	-2	-8	0	-5
Cc1ccsc1CN(C)C(=O)CN1C(=O)NC2(CCCc3ccccc32)C1=O (stereo not drawn)	·	·	12	-6	11	-8	-7	·
Cc1cn([C@H]2C[C@H](O)[C@@H](CNCc3cccn3-c3nccs3)O2)c(=O)[nH]c1=O	·	·	2	7	·	0	5	·
COc1ccc(-c2nc3ccccn3c2NC2CCCCC2)cc1SC1CCCCC1	·	i	-3	44	-29	-2	-20	·
CC(C)(C)NC(=O)C1CCN(C(=O)c2ccc(-c3ccccc3)cc2)CC1	26	i	5	·	-2	4	3	4
O=C(NCCCc1ccncc1)C1CCC(=O)N(Cc2ccc(Cl)cc2)C1 (stereo not drawn)	-4	i	-4	-1	4	-2	-3	1
O=C(c1cccs1)N1CCN=C1SCc1cccc(F)c1	-9	i	-12	12	-8	-6	-4	-8
CCN(CC)C(=O)C1CC(=O)N(c2ccc(F)c(Cl)c2)C1 (stereo not drawn)	-2	i	·	·	·	1	3	-7
COc1nc(OCC#N)nc(N(C)C)n1	11	i	-15	·	-10	4	8	5
CC(C)(C)c1ccc(S(=O)(=O)Nc2noc3ccccc23)cc1	-13	i	17	-4	3	-2	3	-3
Cc1cc(SCC(=O)c2cccs2)nc2c(C)cccc12	-5	i	-3	?	·	-10	-2	-5
O=C(NC1CC1)C1=C[C@H](c2ccc3c(c2)OCO3)C[C@H](OCc2ccc(CO)cc2)O1	9	i	-9	-17	-14	-4	2	2
CC(C)(CN1CCNCC1)NS(=O)(=O)c1ccc(Cl)cc1	·	·	-8	-2	·	3	-9	·
CCN(CC)S(=O)(=O)c1ccc(N/N=C/c2cc(OC)c(OC)cc2OC)nc1	-15	i	-9	·	-7	11	10	2
The list continues.
SMILES	PABP FP inh	Rce1 inhib	Yeast UUG start	Env fusion inh	CSC inhib	MT1-MMP act inh	MT1-MMP act inh RFP	eIF4H inh
COc1ccc(S(=O)(=O)Nc2cccc(SC)c2)cc1OC	8	i	-3	27	-14	0	-8	5
Cc1ccc(NS(=O)(=O)c2cn(C)c(=O)n(C)c2=O)cc1C	-9	i	-10	·	2	-1	0	-5
CCC(C)(C)NC(=O)c1cc([N+](=O)[O-])ccc1N1CCCCC1	5	i	-4	-10	3	-2	-6	11
CCCCn1nc(C(=O)NCC(=O)Nc2c(C)cccc2C)c2ccccc2c1=O	·	·	0	5	·	-3	-5	·
CCCC(=O)Nc1ccc(C(=O)COC(=O)c2c(C)noc2C)cc1	·	·	-12	20	·	5	0	·
O=C(NCc1cc(C(F)(F)F)ccc1F)C1CCC(=O)N(C2CCCCCC2)C1 (stereo not drawn)	-1	i	21	-1	-1	5	-6	-4
O=C(NCCCCc1ccccc1)c1ccccc1F	2	i	-3	5	-25	1	-3	-1
CCCCn1c(N)c(N(CC(C)C)C(=O)c2cc(S(=O)(=O)N3CCOCC3)ccc2Cl)c(=O)[nH]c1=O	·	i	·	-8	2	-2	3	·
O=C(CSc1n[nH]c(=O)n1-c1ccccc1)Nc1ccccc1	5	i	-11	5	-1	5	0	0
Cc1cccc(C)c1NC(=S)N(CCN(C)C)C(C)c1cccnc1 (stereo not drawn)	6	i	·	2	-17	8	8	-1

Reformatted: 12 of the compounds above.
SMILES,PABP FP inh,Rce1 inhib,Yeast UUG start,Env fusion inh,CSC inhib,MT1-MMP act inh,MT1-MMP act inh RFP,eIF4H inh
CC(C)(CN1CCNCC1)NS(=O)(=O)c1ccc(Cl)cc1,·,·,-8,-2,·,3,-9,·
CCN(CC)S(=O)(=O)c1ccc(N/N=C/c2cc(OC)c(OC)cc2OC)nc1,-15,i,-9,·,-7,11,10,2
COc1ccc(S(=O)(=O)Nc2cccc(SC)c2)cc1OC,8,i,-3,27,-14,0,-8,5
Cc1ccc(NS(=O)(=O)c2cn(C)c(=O)n(C)c2=O)cc1C,-9,i,-10,·,2,-1,0,-5
CCC(C)(C)NC(=O)c1cc([N+](=O)[O-])ccc1N1CCCCC1,5,i,-4,-10,3,-2,-6,11
CCCCn1nc(C(=O)NCC(=O)Nc2c(C)cccc2C)c2ccccc2c1=O,·,·,0,5,·,-3,-5,·
CCCC(=O)Nc1ccc(C(=O)COC(=O)c2c(C)noc2C)cc1,·,·,-12,20,·,5,0,·
O=C(NCc1cc(C(F)(F)F)ccc1F)C1CCC(=O)N(C2CCCCCC2)C1 (stereo not drawn),-1,i,21,-1,-1,5,-6,-4
O=C(NCCCCc1ccccc1)c1ccccc1F,2,i,-3,5,-25,1,-3,-1
CCCCn1c(N)c(N(CC(C)C)C(=O)c2cc(S(=O)(=O)N3CCOCC3)ccc2Cl)c(=O)[nH]c1=O,·,i,·,-8,2,-2,3,·
O=C(CSc1n[nH]c(=O)n1-c1ccccc1)Nc1ccccc1,5,i,-11,5,-1,5,0,0
Cc1cccc(C)c1NC(=S)N(CCN(C)C)C(C)c1cccnc1 (stereo not drawn),6,i,·,2,-17,8,8,-1

(continued)
SMILES	PABP FP inh	Rce1 inhib	Yeast UUG start	Env fusion inh	CSC inhib	MT1-MMP act inh	MT1-MMP act inh RFP	eIF4H inh
CN(CC(=O)Nc1cccnc1Cl)S(=O)(=O)c1ccc(Cl)cc1	1	i	-12	-8	-3	0	0	6
O=C1CCCN1CCC(=O)N1CCCC(Nc2ccc(F)c(F)c2)C1 (stereo not drawn)	-4	i	6	10	-3	-3	-1	-8
Cc1ccc(Nc2c(O)nc[nH]c2=O)cc1	·	·	-8	1	·	3	1	·
CC12CCC(C(=O)N(CC(=O)O)C1=O)C2(C)C (stereo not drawn)	-6	i	-14	11	-8	-1	2	-7
Cc1nc2cc(NC(=O)c3cccc(S(C)(=O)=O)c3)ccc2o1	13	·	-25	-29	3	3	0	5
CCOC(=O)C1=C(CS(=O)(=O)c2ccccc2)NC(=O)NC1c1ccc(O)c(OC)c1 (stereo not drawn)	-1	i	-3	-33	-11	-1	3	3
Nc1ccccc1-c1n[nH]c(=S)s1	16	·	·	·	·	2	2	-4
COc1cc2[nH]c(=O)n(CCCCCC(=O)NCCc3c[nH]c4ccccc34)c(=O)c2cc1OC	-1	i	-4	38	-2	2	-2	-1

Assay outcomes as filed in PubChem BioAssay.

The list is partial; count on the stated rates, not on these rows.
